Six1-Eya2 blk: qHTS Assay for Inhibitors of the Six1/Eya2 Interaction. Homeobox protein SIX1 (Homo sapiens) + Protein phosphatase EYA2 (Homo sapiens), …. AlphaScreen GST-Six1/His-Eya2 binding, biochemical; active compounds read low; control for the full effect not named in the record. activity change, % (no concentration beside the values). hit rate 0.56% among 360,000. AID 651725, 2012; in the data active = activity change below about -65%; inconclusive = about -30% to -65%; inactive = above about -30%; note: % is set by controls: 0 for no effect and ±100 for the full control effect
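Homogeneous AlphaScreen proximity assay pairing GST-Six1 with His-tagged Eya2 (added as 5X mix: 250 nM and 500 nM) in 50 mM Tris pH 8.0, 300 mM NaCl, 1 mM TCEP. Glutathione donor and nickel acceptor beads; 1 h, 37 °C, dark.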
D2 agonist: Beta-Arrestin HTS for Positive Allosteric Modulators of the Human D2 Dopamine Receptor: Agonists | D(2) dopamine receptor (Homo sapiens), P14416 | DiscoveRx PathHunter D2 beta-arrestin, luminescence, 90 min; 100% = 57 uM dopamine signal | activation, % (no concentration beside the values) | hit rate 0.084% among 360,000; in the data active = activation above about 40%; inconclusive = about 15% to 40%; inactive = below about 15%; note: compound concentration not given in the record; the text of the record calls up to 30% inactive
Target sequence (P14416 whole entry, looked up): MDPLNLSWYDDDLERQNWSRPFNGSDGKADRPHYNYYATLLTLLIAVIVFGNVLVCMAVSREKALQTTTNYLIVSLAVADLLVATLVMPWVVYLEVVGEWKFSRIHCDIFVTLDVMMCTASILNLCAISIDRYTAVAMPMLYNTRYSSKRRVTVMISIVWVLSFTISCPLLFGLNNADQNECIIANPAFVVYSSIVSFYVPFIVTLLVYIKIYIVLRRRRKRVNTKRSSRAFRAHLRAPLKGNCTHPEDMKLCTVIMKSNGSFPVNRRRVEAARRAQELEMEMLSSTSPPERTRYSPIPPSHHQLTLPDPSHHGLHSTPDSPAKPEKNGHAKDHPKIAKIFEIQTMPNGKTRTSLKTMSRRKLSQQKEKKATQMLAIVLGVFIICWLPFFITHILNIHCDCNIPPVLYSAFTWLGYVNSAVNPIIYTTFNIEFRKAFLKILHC
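Agonist mode: compounds alone added to overnight-plated D2 PathHunter cells for 90 min at 37 C, with 57 uM final dopamine (EC100) defining full response. Beta-arrestin recruitment detected by chemiluminescent reagent, read after 1 h at ambient temperature.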
D2 PAM: Beta-Arrestin HTS for Positive Allosteric Modulators of the Human D2 Dopamine Receptor: Potentiators; D(2) dopamine receptor (Homo sapiens), P14416; DiscoveRx D2 beta-arrestin cells, luminescence, 90 min; 100% = 57 uM dopamine signal; potentiation, % (concentration not given with the values); hit rate 0.23% among 360,000; AID 624464, 2012; active = potentiation of 50% or more; inconclusive = 30% to 50%; inactive = 30% or less;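 note: compound concentration not given in the record; tested on top of an EC20 dose of dopamine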
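D2 cells co-treated with compound plus 50 nM dopamine (EC20) for 90 min at 37 deg C to detect potentiation. Beta-arrestin recruitment was read as enzyme-fragment luminescence after 1 h at ambient temperature. Full response was set by 57 uM dopamine.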
PINK1 modulator: A Quantitative High throughput Screen to Identify Chemical Modulators of PINK1 Expression. PINK1 immunofluorescence, high-content cytometry, 24 h. Potency, µM (highest dose often 76.6 µM), for inactives: at the highest dose activation (PINK1 increase), actives largely listed as activators. hit rate 0.2% among 410,000. AID 624263, 2012; active = well fitted activation curve with a large enough effect; inconclusive = small, poorly fitted or top-dose-only effect; inactive = flat fitted curve, though single readings scatter; cell line not stated here;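 note: potency is the fitted concentration of half-maximal effect; % of control where 0% means no effect; nearly all actives have a fitted effect of over 65% in size; a mitochondrial uncoupler was the plate control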
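Stable cell line, 250 cells/well, 12 h attachment; compounds pinned at 5 concentrations, 24 h; CCCP control. Fixed with nuclear dye, primary antibodies 12 h at 10 degrees C, secondary plus cell stain; laser-scanning cytometer read.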
TRPML1 agonist: qHTS for Agonists of the Human Mucolipin Transient Receptor Potential 1 (TRPML1); Mucolipin-1 (Homo sapiens), Q9GZU1; TRPML1-expressing cells, Ca2+ dye fluorescence, FDSS; host cell line not named in the record; reference of the full effect not given here; activation, % (no concentration beside the values); hit rate 0.12% among 410,000; AID 624414, 2012; in the data active = activation above about 50%; inconclusive = about 30% to 50%; inactive = below about 30%; note: 0% is about no effect; the text of the record puts the active cut at 80%
Target sequence (Q9GZU1 whole entry, looked up): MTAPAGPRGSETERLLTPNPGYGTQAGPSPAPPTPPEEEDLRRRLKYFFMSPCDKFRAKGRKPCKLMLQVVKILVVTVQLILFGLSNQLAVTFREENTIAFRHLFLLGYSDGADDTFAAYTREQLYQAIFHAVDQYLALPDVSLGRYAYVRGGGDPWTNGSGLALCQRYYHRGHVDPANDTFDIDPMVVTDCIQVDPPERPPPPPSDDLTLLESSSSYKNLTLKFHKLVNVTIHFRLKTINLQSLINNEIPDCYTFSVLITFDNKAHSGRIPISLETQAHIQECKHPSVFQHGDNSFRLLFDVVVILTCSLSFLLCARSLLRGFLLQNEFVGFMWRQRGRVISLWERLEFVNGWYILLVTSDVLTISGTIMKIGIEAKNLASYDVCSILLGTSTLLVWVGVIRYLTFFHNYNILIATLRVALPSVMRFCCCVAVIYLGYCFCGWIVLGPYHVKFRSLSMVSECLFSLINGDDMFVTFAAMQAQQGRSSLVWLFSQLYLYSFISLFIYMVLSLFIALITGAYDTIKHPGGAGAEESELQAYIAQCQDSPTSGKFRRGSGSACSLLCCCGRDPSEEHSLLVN
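Tet-induced TRPML1-DL cells, 1,500 per well, cultured overnight, were loaded with a no-wash Ca2+ dye for 45–90 min. Calcium fluorescence was recorded on the FDSS for 110 s after compound addition, before the EC80 agonist (4 uM 54-4) was added.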
CtBP-E1A inh: qHTS Assay for Inhibitors of the CtBP/E1A Interaction; CtBP / adenovirus E1A interaction (AlphaScreen); AlphaScreen GST-E1A/His-CtBP binding, 1536-well; active compounds read low; control for the full effect not named in the record; activity change, % (test concentration not listed); hit rate 0.49% among 340,000; AID 651724, 2012; in the data active means activity change below about -65%; inconclusive means about -30% to -65%; inactive means above about -30%; note: % is set by controls: 0 for no effect and ±100 for the full control effect
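AlphaScreen with 125 nM GST-E1A and 125 nM His-CtBP (5X stocks) in Tris pH 8.0, 300 mM NaCl, BSA, Tween 20, TCEP. Compounds preincubated 2 h at 37 deg C, then glutathione donor/nickel acceptor beads added for 1 h at 37 deg C in dark.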
Numbers without * were called inactive; ? = inconclusive; . = not tested or not shown; & = joins results of further samples; [ ] = another dose, or the depositor's remark.

entry	Compound	Six1-Eya2 blk	D2 agonist	D2 PAM	PINK1 modulator	TRPML1 agonist	CtBP-E1A inh
1	Cc1c(C(=O)NCc2cccnc2)oc2ccc(S(=O)(=O)N3CCCC(C)C3)cc12 (stereo not drawn)	-2	0.6	-3	0.3%	-0.6	-1
2	Cc1cc(=O)oc(C)c1C(=O)Nc1cccnc1Cl	1	-1.3	-1	0.1%	1.1	7
3	O=C(c1ccc2c(c1)OCCO2)N1CCN(Cc2c(F)cccc2Cl)CC1	-8	-1.6	-7	-1.6%	-0.3	.
4	COc1ccc(/C=C2/SC(=O)N(CC(=O)Nc3cc(C)on3)C2=O)cc1OC	4	-1.2	9	0.2%	0.5	0
5	COc1ccc(CCNC(=O)c2ccc(NC(=O)CC3SC(N4CCCCC4)=NC3=O)cc2)cc1 (stereo not drawn)	1	-0.7	2	2.5%	0.5	.
6	Cc1ccn2cc(-c3cnoc3C)nc2c1	0	-2.3	-1	-0.2%	-0.8	5
7	CC(CN1CCCCC1)OC(=O)CCc1ccccc1 (stereo not drawn)	4	3.9	-21	1.6%	-0.1	5
8	CC(C)(C)OC(=O)NCc1ccc(CNC(=O)c2nc[nH]c2C(=O)N2CCN(C(=O)OC(C)(C)C)CC2)cc1	2	5.0	7	2.7%	-0.7	4
9	CCC/C(O)=C1\C(=O)CCCC1=NCCc1c(C)[nH]c2ccccc12	-7	2.3	-1	0.5%	1.3	.
10	CN1CCN(C(=O)CN(c2cc(C(F)(F)F)ccc2Cl)S(C)(=O)=O)CC1	9	5.3	-2	.	0.7	10
11	Cc1ccccc1C(=O)N(C)[C@H]1C[C@H]2c3[nH]c4ccccc4c3CCN2C[C@H]1[C@H](C)O	-18	-4.5	-7	4.4%	-0.6	-7
12	CCOC(=O)NCc1ccccc1	4	-0.4	-32	2.0%	-0.7	-2
13	O=C(O)c1ccc(-c2nc(-c3ccccc3)c(-c3cccs3)[nH]2)cc1	-11	-2.4	-3	-0.7%	-1.3	-13
14	CC(=O)c1cccc(NC(=S)NCCc2ccc(Cl)cc2)c1	5	-1.0	3	11%	-0.8	-12
15	O=C1CN(C(=O)N[C@@H](Cc2ccccc2)C(=O)N[C@H](Cc2ccccc2)C(=O)O)c2ccccc2N1	1	3.1	-12	0.2%	.	0
16	O=C(Nc1c(-c2ccc(F)cc2)nc2ccccn12)c1ccc(F)cc1	2	-3.1	-1	-2.5%	1.2	7
17	COCCOc1ccc(C(F)(F)F)cc1NC(=O)COC(=O)c1ccc(N2CCCC2=O)cc1	4	1.1	-4	5.5%	-0.3	4
18	O=C1CNc2ccc(C(=O)N3CCN(c4ccccn4)CC3)cc2N1	0	-2.7	2	0.6%	0.7	1
19	COC(=O)COc1cccc(NC(=O)c2ccc(C)cc2)c1	4	2.9	2	-3.3%	-1.5	0
20	Cc1ccccc1NC(=O)Cc1nc(COC(=O)c2ccc(Cl)c(S(N)(=O)=O)c2)cs1	-4	-0.3	-7	11%	0.5	-1
21	CC(C)(C)c1ccc(C(=O)Nc2ccc(S(=O)(=O)Nc3cnc4ccccc4n3)cc2)cc1	-3	0.5	-3	2.4%	0.7	4
22	CCN(CC)c1ccc(NC(=O)CCCCC(=O)Nc2ccc(N(CC)CC)cc2)cc1	-1	-2.2	-11	7.6%	0.0	.
23	COc1cc(C(C)=O)ccc1OCC(=O)OCC(=O)c1cc(C)n(CC2CCCO2)c1C (stereo not drawn)	-5	6.8	-1	0.1%	-0.1	-1
24	O=C(CSc1nc(-c2ccccc2)c(-c2ccccc2)o1)NCCCO	-2	-1.7	5	1.0%	0.7	-3
25	CC(=O)Nc1ccc(S(=O)(=O)N2CCCC2C(=O)Nc2ccc(F)cc2)cc1 (stereo not drawn)	6	-0.2	-13	-0.6%	-0.1	-4
26	Cc1cccc(NS(=O)(=O)c2ccc(C(=O)NCC3CCCO3)cc2)c1C (stereo not drawn)	0	0.6	-2	4.7%	-0.2	1
27	C/C(=N\NC(=O)CNc1cccc(Cl)c1C)c1cccs1	-2	9.7	4	-3.3%	1.4	-1
28	COCCN(C(=O)CNC(=O)c1ccco1)C(C(=O)NC1CCCC1)c1ccc(OC)cc1 (stereo not drawn)	2	-2.7	-10	0.5%	0.0	-12
29	O=C(O)c1ccc2noc(-c3ccccc3)c2c1	-9	3.0	-4	-0.8%	-0.5	-3
30	CC(=O)Oc1ccc(Cn2c(C)c(C(=O)NC3CC3)sc2=O)cc1	1	-1.3	-2	2.7%	-1.1	0
31	C=CCN=C(NC#N)SCCc1ccccc1	-1	-0.9	-19	21%[38.3 µM]	-0.3	7
32	CC(CSc1nnnn1-c1ccccc1)Cn1c(N2CCN(C)CC2)nc2c1c(=O)[nH]c(=O)n2C (stereo not drawn)	-8	-2.6	-15	1.7%	0.3	-23
33	Cc1ccc(NC(=O)CN(C)C(=O)CSc2nnc(C(F)(F)F)n2C)cc1	-19	-2.2	4	0.7%	-0.4	0
34	Cc1nn(-c2nnc(C)c(=O)[nH]2)c(C)c1SCC(=O)Nc1ccc(C(C)C)cc1	-27	-2.4	-18	0.1%	-1.2	-22
35	CCS(=O)(=O)NCCc1csc(-c2cccnc2)n1	2	-2.7	-5	2.9%	-0.4	2
36	COc1ccc(-c2nc(SCC(=O)NCc3ccco3)c(-c3ccccc3)[nH]2)cc1OC	-20	-1.5	-22	-0.7%	2.5	-10
37	CCC(=O)N(CCC1(C(C)C)CCOC(C)(C)C1)C(C)c1cccs1 (stereo not drawn)	1	-0.9	1	0.3%	2.5	.
38	CCOC(=O)N1CCN(C(=O)CSc2nc(=O)n3ccc(C)cc3n2)CC1	4	3.4	15	0.2%	-0.3	11
39	S=c1nn[nH]c2ccccc12	-2	-2.0	-15	1.4%	1.2	-9
40	N#Cc1cccc(CSc2ncnc(N)n2)c1	6	-1.7	4	0.6%	-0.2	9

Sorted by length of the SMILES (rising): part of the list above.
entry	Compound	Six1-Eya2 blk	D2 agonist	D2 PAM	PINK1 modulator	TRPML1 agonist	CtBP-E1A inh
40	N#Cc1cccc(CSc2ncnc(N)n2)c1	6	-1.7	4	0.6%	-0.2	9
29	O=C(O)c1ccc2noc(-c3ccccc3)c2c1	-9	3.0	-4	-0.8%	-0.5	-3
28	COCCN(C(=O)CNC(=O)c1ccco1)C(C(=O)NC1CCCC1)c1ccc(OC)cc1 (stereo not drawn)	2	-2.7	-10	0.5%	0.0	-12

(further entries)
entry	Compound	Six1-Eya2 blk	D2 agonist	D2 PAM	PINK1 modulator	TRPML1 agonist	CtBP-E1A inh
41	Cc1ccc(N(CCCCN2C(=O)c3ccccc3C2=O)C(=O)c2cccs2)cc1	1	-1.7	-12	-2.0%	-0.1	3
42	O=C(CN1C(=O)NC2(CCOc3ccccc32)C1=O)NCCc1ccccc1 (stereo not drawn)	6	-0.3	-4	-0.5%	0.1	-5
43	O=C(CCCn1c(=O)[nH]c2cc(Cl)ccc2c1=O)NCCCN1CCCC1=O	-2	-4.9	15	-2.1%	0.1	1
44	COc1cccc(CN(C)C(=O)c2cc(-c3cccs3)nc3ccccc23)c1	-1	-0.1	14	-4.9%	1.3	1
45	O=C(O)CC(Sc1n[nH]c(=S)s1)C(=O)O (stereo not drawn)	2	-7.4	-15	1.4%	3.1	4
46	O=C(c1ccccc1/S(=N/S(=O)(=O)c1ccccc1)N1CCOCC1)N1CCOCC1 (stereo not drawn)	12	0.0	2	-3.4%	0.5	-2
47	CC(=O)NC(CC(C)C)C(=O)NC(Cc1ccccc1)C(N)=O (stereo not drawn)	0	-3.3	-10	9.5%[38.3 µM]	0.4	5
48	COC(=O)CCCC1=CC2=CC(=O)C(C)(OC(=O)c3cccs3)C(=O)C2=CN1CCc1c[nH]c2ccccc12 (stereo not drawn)	-17	6.0	14	-0.3%	0.0	?
49	Cc1cc(C)cc(SCc2noc(C(=O)NCCN(C)C)c2C(=O)NCCN(C)C)c1	4	-3.7	-53	4.7%	0.1	0
50	Cc1cc(C(=O)CSc2nnc(Nc3ccccc3)s2)c(C)n1CC1CCCO1 (stereo not drawn)	-25	-1.5	-6	-0.7%	-1.1	-24
51	CCOC(=O)C1C(C(=O)OCC)C1(c1ccccc1)c1ccccc1 (stereo not drawn)	8	-1.2	-11	-2.9%	1.6	7
52	COc1ccc(CCNC(=O)CS(=O)Cc2nc(-c3ccccc3F)oc2C)cc1OC (stereo not drawn)	0	-3.5	0	-1.4%&-0.6%	-0.8&0.4	1
53	CN1CCN(c2nc(NCCOC34CC5CC(CC(C5)C3)C4)nc(OCC(F)(F)F)n2)CC1	-6	-4.6	-14	4.4%	1.1	-1
54	CCOC(=O)c1c(NC(=S)Nc2ccc(Cl)cc2)sc2c1CCN(C)C2	-17	-7.3	-33	19%	6.3	10
55	O=C(O)c1ccc(CNCc2cc(Cl)ccc2O)cc1	1	0.5	-5	1.9%	-0.3	6
56	COc1ccccc1C1NC(=O)NC(C)=C1C(C)=O (stereo not drawn)	-5	-10	-13	4.6%	0.3	13
57	CN(C)S(=O)(=O)c1cccc(NC(=O)CSc2nc3ccccc3n2-c2ccccc2)c1	-9	1.4	-18	1.1%	3.5	-20
58	COc1ccc(C(=O)NC2CCCCCCC2)cc1OC	-7	-2.1	-4	15%	0.5	3
59	COCCCNC(=O)CN1C(=O)/C(=C\c2ccc(C)cc2)Sc2ccccc21	8	0.6	-3	9.1%	1.3	-5
60	CC(=O)N1CCN(C(=O)c2ccc3c(c2)S(=O)(=O)c2ccccc2C3=O)CC1	-2	13	0	0.6%	0.7	-16
61	COc1ccc(C=O)cc1OS(=O)(=O)c1ccc(NC(C)=O)cc1	11	-0.6	-6	1.7%	0.6	1
62	CC(=O)n1c(C=Nc2ccc(Cl)cc2)c(O)c2ccccc21	14	-14	-10	?	13	6
63	COc1ccccc1CNC(=O)CCCc1cn(C)c2ccccc12	17	1.2	-5	-0.3%	2.5	-11
64	Cc1cc2ncc(S(=O)(=O)c3ccccc3)c(N)n2n1	0	-4.0	-2	0.8%	0.3	3
65	Cc1ccc(C(=O)NCC(=O)Nc2cc(C)ccn2)cc1	4	3.2	12	2.7%	-0.3	4
66	CC(=O)OCC1=C(C(=O)O)N2C(=O)[C@@H](NC(=O)CSc3ccncc3)[C@H]2SC1	-10	-4.8	-3	1.0%	0.8	-3
67	CCC[C@H]1CN(c2ccc(OC)cc2)C(=O)[C@@H]1CC(=O)Nc1ccccc1	-2	-7.5	0	3.9%	-0.7	5
68	O=C(CSc1ccc(S(=O)(=O)N2CCOCC2)cn1)Nc1ccc(OC(F)F)cc1	4	-5.1	2	2.8%	0.2	-2

High-throughput results as filed in PubChem BioAssay.
